Compound activity deposited in PubChem by National Center for Advancing Translational Sciences (NCATS).
VACV Venus inh: vaccinia inhibition (Venus reporter); hit rate 0.46% among 330,000; Vaccinia virus Venus reporter expression, fluorescence; AID 720580; Potency, µM (series often up to 36.5 µM), inactives show top-dose activity change, negative = inhibition, actives largely listed as inhibitors; active means well fitted inhibition curve with a large enough effect; inconclusive means small, poorly fitted or top-dose-only effect; inactive means no such curve, though single readings can be large or run the other way; tested in A549 cells; also: nearly all actives have a fitted effect of over 30% in size; inactives centre near -10
Vaccinia mCherry: vaccinia inhibition (mCherry reporter); Vaccinia virus mCherry reporter infection, fluorescence; about a quarter of the inactives have no number; hit rate 0.63% among 310,000; Potency, µM (series often up to 36.5 µM), for inactives: at the top dose activity change, negative = inhibition, most hits filed as inhibitors; AID 720579; active = well fitted inhibition curve with a large enough effect; inconclusive = small, poorly fitted or top-dose-only effect; inactive = no such curve, though single readings can be large or run the other way; tested in A549 cells; also: nearly all actives have a fitted effect of over 35% in size; inactives centre near -10
* hit, by the source's call; i = inactive; ? = inconclusive; . = not tested or not shown; & = joins results of further samples; [ ] = dose if it differs, or a comment. % is scaled to controls: 0 for no effect and ±100 for the full control effect; potency is read from the fitted curve at half-maximal effect.

SMILES | VACV Venus inh | Vaccinia mCherry
CCOc1ccc(C(=O)c2oc3ccccc3c2NC(=O)Cc2coc3cc(C)cc(C)c23)cc1 | 3% | 0%
Cc1cccn2cc(-c3ccc(F)cc3)cc12 | 0% | i
CCCN(CC(=O)Nc1ccc(Cl)cc1Cl)Cc1cc(=O)n2ccsc2n1 | -8% | -25%
Cc1ccc(CCNC(=O)c2cc(-c3ccncc3)nc3ccccc23)cc1 | -2%[7.34 µM] | -5%[7.34 µM]
Cc1ccc(CN(C(=O)Nc2cccc(Cl)c2)c2ccccn2)cc1 | -5% | -15%
O=C(CN1C(=O)NC2(CCOc3ccccc32)C1=O)Nc1ccc(F)c(F)c1F (stereo not drawn) | -23% | -7%
COc1ccc2[nH]cc(CCNC(=O)CS(=O)(=O)Cc3ccccc3)c2c1 | -7% | ?
CC(=O)Nc1ccc(S(=O)(=O)NC(C)C(=O)NCCc2ccc(F)cc2)cc1 (stereo not drawn) | 2% | 4%
Cc1c(C(=O)Nc2cccc(C(F)(F)F)c2)oc2ccc(S(=O)(=O)N3CCC4(CC3)OCCO4)cc12 | -25% | -15%
CCC(Sc1nc(N)cc(=O)[nH]1)C(=O)NC(C(=O)OC)c1ccccc1 (stereo not drawn) | 8% | .
CSc1nc(O)c(C(c2ccc(OC(C)C)cc2)c2c(O)nc(SC)[nH]c2=O)c(=O)[nH]1 | -11% | -22%
C/C(=N\NC(=O)CSCc1ccc([N+](=O)[O-])cc1)c1cccc(Br)c1 | -25% | -12%
CCCC[N+](CC#CCO)(CC#Cc1ccccc1)CCCC | -4% | -9%
CC(C)NC(=O)[C@]1(C)CCC[C@@]2(C)C3CC[C@@]4(C)C[C@]3(CCC21)CC4=O (stereo partly drawn) | -8% | i
CC(C)N(C(=O)COC(=O)c1ccc(O)cc1)C(C)C | -10% | .
CC1(C(=O)NCCc2ccccc2)Cc2c(-c3cccc(C(F)(F)F)c3)ccnc2O1 (stereo not drawn) | -26% | ?
Cc1nn(-c2ccccc2)c2c1N(CCCC(=O)NCc1ccc(N(C)C)cc1)C(=O)CS2 | -3% | -5%
Cc1cccc(S(=O)(=O)N2CN(Cc3ccco3)c3nc4ccccc4nc32)c1 | 3% | .
Cn1nc(C(=O)NNC(=O)c2ccc(Cl)c(S(N)(=O)=O)c2)c2ccccc2c1=O | -14% | -8%
Fc1cccc(F)c1-n1c(CN2CCCC2)csc1=S | -2% | -14%
Cc1cc2c(cc1C)-c1nnnn1C(N1CCCC1)C(=O)N2 (stereo not drawn) | -12% | -5%
O=C1CN(C(=O)COC(=O)c2ccc[n+]([O-])c2)c2ccccc2N1 | -13% | -3%
COc1ccccc1N1CCN(C(=O)c2ccccc2N(C)S(=O)(=O)c2ccc(C)cc2)CC1 | -10% | i
O=C(CN1CCN(Cc2cccc(Cl)c2)C1=O)NCC1CCCO1 (stereo not drawn) | -10% | -23%
CC(C)NC(=O)C1(C)Cc2c(-c3ccc(C(N)=O)cc3)ccnc2O1 (stereo not drawn) | -3% | 40%[activator]

Laid out differently: seven of the compounds above.
| mol | VACV Venus inh | Vaccinia mCherry |
| --- | --- | --- |
| Cc1c(C(=O)Nc2cccc(C(F)(F)F)c2)oc2ccc(S(=O)(=O)N3CCC4(CC3)OCCO4)cc12 | -25% | -15% |
| Cc1cccn2cc(-c3ccc(F)cc3)cc12 | 0% | i |
| CCCN(CC(=O)Nc1ccc(Cl)cc1Cl)Cc1cc(=O)n2ccsc2n1 | -8% | -25% |
| COc1ccccc1N1CCN(C(=O)c2ccccc2N(C)S(=O)(=O)c2ccc(C)cc2)CC1 | -10% | i |
| CC1(C(=O)NCCc2ccccc2)Cc2c(-c3cccc(C(F)(F)F)c3)ccnc2O1 (stereo not drawn) | -26% | ? |
| Cc1cc2c(cc1C)-c1nnnn1C(N1CCCC1)C(=O)N2 (stereo not drawn) | -12% | -5% |
| Cc1nn(-c2ccccc2)c2c1N(CCCC(=O)NCc1ccc(N(C)C)cc1)C(=O)CS2 | -3% | -5% |

Going on with the list.
SMILES | VACV Venus inh | Vaccinia mCherry
CCn1c(=O)cc(OCC(=O)NCc2ccc(F)cc2Cl)c2ccccc21 | -9% | -14%
COC(=O)c1cc(NCc2ccc3c(c2)OCO3)ccc1N1CCOCC1 | -10% | -12%
O=C(Cc1csc(-c2cccc(F)c2)n1)Nc1cccc(S(=O)(=O)NC2=NCCC2)c1 | -23% | -7%
Cc1ccc(OCc2nc(C#N)c(N3CCN(Cc4ccccc4)CC3)o2)cc1 | -2% | -9%
COc1ccc(/C=C\c2onc(C)c2S(=O)(=O)N2CCC(C(=O)Nc3ccc(C)c(F)c3)CC2)cc1 | -18% | -25%
CN(C)Cc1csc(NC(=O)Nc2cccc(C(F)(F)F)c2)n1 | -10% | -14%
CCOC(=O)c1ccc(N2C(=O)c3n[nH]c(-c4cccs4)c3C2c2ccc(OCC)cc2)cc1 (stereo not drawn) | ? | ?
Cc1nn(Cc2ccccc2Cl)c(C)c1C(=O)NC1CCCc2ccccc21 (stereo not drawn) | -13% | i
CC(C)(C)c1ccc(CCC2OCC(CN3CCOCC3)O2)cc1 (stereo not drawn) | -8% | -20%
O=C(c1cccc(F)c1)N(Cc1cc2cc3c(cc2nc1N1CCOCC1)CCC3)CC1CCCO1 (stereo not drawn) | -4% | i
Cc1ccc([C@@H]2CC=C(C(=O)O)[C@H](c3ccccc3F)N2S(=O)(=O)c2ccccc2C)cc1 | -24% | i
O=C(Nc1ccc(-c2nc3cccnc3s2)cc1)c1ccco1 | ? | i
Cc1c(C(=O)O)oc2c1-c1nn(Cc3ccccc3Cl)cc1CC2 | -9% | -11%
Cc1cc(C)n(CC(=O)NNC(=O)C2CC(=O)N(Cc3ccccc3Cl)C2)n1 (stereo not drawn) | -5% | -2%
CC(CN1CCCC1)OC(=O)Cc1ccc(Cl)cc1 (stereo not drawn) | -11% | -19%
Cc1ccn2cc(CNC(=O)c3ccc(Br)o3)nc2c1 | -4% | i
Cc1nn(C(C)C(=O)Nc2ccc(C(C)C)cc2)c(=O)c2c1sc1ccccc12 (stereo not drawn) | -4% | -4%
CCSc1nnc(NC(=O)C2Cc3ccccc3CN2C(=O)c2ccco2)s1 (stereo not drawn) | -6% | -15%
COc1ccc(S(=O)(=O)N2c3ccccc3NC(=O)CC2C)cc1 (stereo not drawn) | -17% | -25%
Cc1nn(C(C)(C)C)c(NC(=O)c2ccc(Cl)cc2Cl)c1Br | -7% | -3%
CCCNC(=O)N1[C@H]2CC[C@@H]1C(C(=O)OC)=C(c1cc3ccccc3s1)C2 | -17% | 0%
NC1(N)OC(CN2C(=O)c3ccccc3C2=O)CS1 (stereo not drawn) | -11% | -24%
COc1ccnc(Oc2ccc3ccccc3c2)c1C#N | -18% | -1%
CCn1c(SCC(=O)Nc2ncc(C(F)(F)F)cc2Cl)nnc1-c1cccc(C)c1 | -18% | -20%
CC1(C)Cc2c(C#N)c(N)sc(=S)c2CO1 | 8% | -6%

(more compounds)
SMILES | VACV Venus inh | Vaccinia mCherry
COCCNC(=O)c1ccccc1NC(=O)c1cccc([N+](=O)[O-])c1C | -2% | i
COc1ccc(/C=C2\SC(N3CCCCC3)=NC2=O)cc1OC | -2% | -24%
Cc1ccc(Cl)c(OCC(=O)Nc2sc(C)c(C)c2C#N)c1 | -6% | i
O=C(NC1CCN(Cc2ccccc2)CC1)c1cc(-c2ccccn2)nc2ccccc12 | -9% | -25%
CCOC(=O)C1=CC2(CC)CCCN3CCc4c(n1c1ccccc41)C32 (stereo not drawn) | -4%[60.7 µM] | -6%[60.7 µM]
CCCC(C)C(=O)Nc1nc(C)c(-c2csc(Nc3ccc(Cl)cc3)n2)s1 (stereo not drawn) | ? | ?
O=C(Nc1ccccn1)c1ccc(NC(=O)c2ccco2)cc1 | -20% | i
Cc1nc2ccccc2c(=O)n1/N=C/c1ccc(O)c(O)c1O | -1% | -1%
COc1ccc(N(CC(=O)NN=C2CCCC2)S(=O)(=O)c2ccccc2)cc1Cl | -2% | -11%
O=C(Cn1nc(C(=O)O)c2ccccc2c1=O)Nc1ccc2c(c1)OCO2 | -3% | -12%
Cc1c(Cc2ccccc2)c(=O)oc2c(O)c(O)ccc12 | -22% | 0%
CCOc1ccc(Cl)cc1S(=O)(=O)N1CCCC1 | -10% | i
CCOC(=O)c1c(N)c2cc([N+](=O)[O-])cnc2n1C | -4% | -3%
COc1cc(OC)cc(C(=O)NNC(=S)Nc2ccccc2OC)c1 | -4% | -2%
COC(=O)NNC(=O)C1CCC(C)CC1 (stereo not drawn) | -14%&-9% | -9%&-24%
COc1cccc(CNC(=S)Nc2ccc3c(c2)c(=O)n(C)n3Cc2ccccc2)c1 | -6% | -1%
CCCCOc1ccc(C(C)NC(=O)c2cccc(Nc3nc4ccccc4n4nnnc34)c2)cc1 (stereo not drawn) | ? | ?
CCN1CCN(C(C(=O)NC2CCCCC2)C2CC2)CC1 (stereo not drawn) | -5% | 11%
CCN(CC)C(=O)COCc1cc(-c2ccc3c(c2)OCO3)on1 | -13% | i
COC(=O)C1=NN(c2ccc(OC)cc2)C2C(=O)N(c3ccccc3OC)C(=O)C12 (stereo not drawn) | -6% | i
Cc1ccccc1CNC(=O)Nc1cccs1 | -12% | -18%[1.46 µM]
COc1ccccc1CN1CCN(C2CCN(C(=O)Nc3ccccc3)CC2)C(=O)C1=O | 5% | 3%
COc1ccc(N(C(=O)c2ccco2)S(=O)(=O)c2ccc(F)cc2)cc1 | -8% | -3%
O=C(N/N=C/c1ccccc1)c1ccc(OCc2ccccc2)cc1 | ? | -13%
CC/C(=N\NC(=S)Nc1cc(C)ccc1C)c1ccc(OC(F)F)cc1 | -16% | -26%

The list goes on:
SMILES | VACV Venus inh | Vaccinia mCherry
COc1cccc(CN2CCNC(=O)C2CC(=O)NCCCC2CCCC2)c1OC (stereo not drawn) | -11% | -10%
Cc1ccccc1Nc1c(-c2cccnc2)nc2ccc(Cl)cn12 | ? | -13%
Cc1ccc(/C(COc2ccccc2O)=N\O)cc1 | -9% | i
COC(=O)COc1ccc(/C=C2\SC(=O)N(CC(=O)Nc3ccccc3F)C2=O)cc1 | -3% | -5%
O=C(C[C@H]1C/C=C\C[C@H](NC(=O)OCC2c3ccccc3-c3ccccc32)C(=O)O[C@H](c2ccccc2)CNC1=O)N[C@H](CO)Cc1ccccc1 | 13µM* | 10µM*
CCOC(=O)c1cccc(NC(=O)[C@@H](c2ccccc2)N2Cc3ccccc3C2=O)c1 | -12% | -18%
O=C(Nc1ccc(S(=O)(=O)Nc2cnc3ccccc3n2)cc1)c1ccccc1Br | -5% | 10%
Cc1cc(C)c(NC(=O)COC(=O)CCn2c(C)csc2=O)c(C)c1 | -11% | -11%
O=C(N1CCCCC1)N1CCN(c2ccc(Cl)cc2)CC1 | -24% | -6%
Cc1ccc(N(CCC#N)C(=O)COC(=O)c2ccccn2)cc1 | -15% | -21%
CCCNC(=O)Cn1cnc2sc(C(=O)NCCCN3CCOCC3)c(C)c2c1=O | -6% | i
Cc1cc(OCc2cc(C(=O)N(C)Cc3ccccn3)no2)cc(C)c1Cl | -10% | -11%
CC(=O)O[C@H](CC(=O)O)C[N+](C)(C)C | -7% | -14%
CCC(C)(C)n1nnnc1C(c1ccc2ncccc2c1)N1CCN2CCCC2C1 (stereo not drawn) | -9% | i
S=C(NCCc1ccccn1)NC1CCCCC1 | -6% | -8%
COc1ccccc1NC(=O)CSc1nnc(C2CCCCC2)n1-c1ccccc1 | -9% | 4%
O=C(NCc1ccccc1)C1=C[C@@H](c2ccc(C(F)(F)F)cc2)C[C@@H](OCc2ccc(CO)cc2)O1 | ? | ?
O=C1/C(=C/c2ccc(N3CCCC3)cc2)NC(=S)N1C1CC1 | 6% | -9%
Cc1noc(C)c1CC(=O)NCC1Cc2cc(-c3cccc(OC(F)(F)F)c3)ccc2O1 (stereo not drawn) | -16% | -24%
COCCN(C(=O)CCC(=O)Nc1cc(C)on1)C(C(=O)NC1CCCC1)c1ccccc1F (stereo not drawn) | -20% | -15%
CC(C)(CNC(=O)Cc1ccc(NS(=O)(=O)c2cccc(C(F)(F)F)c2)cc1)N1CCOCC1 | -6% | i
C[C@H](CO)N1C[C@H](C)[C@@H](CN(C)Cc2ccc(Cl)c(Cl)c2)Oc2c(NS(=O)(=O)c3cn(C)cn3)cccc2C1=O | -17% | -13%
Cc1cc(C)n(-c2cc(=O)n(C)c(=O)n2C)n1 | -4% | -17%
Cc1nc(C)c(C(=O)C2=C(O)C(=O)N(CCN3CCOCC3)C2c2cccnc2)s1 (stereo not drawn) | 3% | .
COc1cc(CN(C)CCc2ccccn2)cc(OC)c1OC | -22% | .

The closing 3 entries of the section before open the next one.
SMILES | VACV Venus inh | Vaccinia mCherry
Cc1cc(C)n(-c2cc(=O)n(C)c(=O)n2C)n1 | -4% | -17%
Cc1nc(C)c(C(=O)C2=C(O)C(=O)N(CCN3CCOCC3)C2c2cccnc2)s1 (stereo not drawn) | 3% | .
COc1cc(CN(C)CCc2ccccn2)cc(OC)c1OC | -22% | .
O=[N+]([O-])c1ccc(N2CCNCC2)c(S(=O)(=O)N2CCOCC2)c1 | -7% | -3%
Brc1ccccc1-c1nnc(COc2cccc3cccnc23)o1 | -24% | -13%[1.46 µM]
Cc1cccc2cc(C3CC(c4ccco4)=NN3C(=O)CCC(=O)O)c(Cl)nc12 (stereo not drawn) | 1% | -9%
CCCC(=O)N1CCC1(C)C(=O)NS(=O)(=O)c1cccs1 (stereo not drawn) | -4% | i
Cc1noc(C)c1C(=O)OCC(=O)NCc1ccccc1 | 4% | -1%
CNc1ncnc2c1ncn2[C@H]1C[C@H](O)[C@@H](CO)O1 | 4% | -4%
CC(=O)Nc1ccc(NS(=O)(=O)c2c(Cl)cccc2Cl)cc1 | -14% | -13%
